Cruzain noTriton – qHTS Assay for Promiscuous and Specific Inhibitors of Cruzain (without detergent). Cruzipain (Trypanosoma cruzi), P25779. purified cruzain, Z-FR-AMC fluorescence, no detergent. Potency, µM, for inactives: max response, negative = inhibition, most hits filed as inhibitors. 200,000 compounds, 2.3% hits. AID 1476, 2009;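 note: plate controls were enzyme without inhibitor for no effect and buffer without enzyme for full effect; nearly all actives have a fitted effect of over 40% in size; top concentration of the series not given in the record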
Target sequence (P25779 123-467 limits assumed): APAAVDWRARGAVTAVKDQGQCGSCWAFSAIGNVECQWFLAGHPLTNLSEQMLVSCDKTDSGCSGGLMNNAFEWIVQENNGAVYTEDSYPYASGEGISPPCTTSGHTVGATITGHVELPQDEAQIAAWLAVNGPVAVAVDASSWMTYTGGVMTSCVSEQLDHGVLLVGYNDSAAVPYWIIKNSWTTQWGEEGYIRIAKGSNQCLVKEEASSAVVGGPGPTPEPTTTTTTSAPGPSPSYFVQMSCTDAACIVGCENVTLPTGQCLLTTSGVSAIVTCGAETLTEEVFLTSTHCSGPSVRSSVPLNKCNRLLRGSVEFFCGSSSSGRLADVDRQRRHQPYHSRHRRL
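Purified cruzain at 1.5 nM, pre-incubated 15 min with compound at room temperature in 100 mM sodium acetate pH 5.5, 5 mM DTT, 0.00005% Triton X-100. Reaction started with 2 uM Z-FR-AMC; AMC fluorescence increase over 60 s gives rate.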
MARV entry inh – qHTS for inhibitors of binding or entry into cells for Marburg Virus; Marburg virus pseudotyped entry inhibition, cell reporter; control for the full effect not named in the record; about a third of the inactives were read at about 46 µM; Potency, µM (top dose mostly 37.8 µM), without a hit: at the highest dose activity change, negative = inhibition, hits mostly inhibitors; 300,000 compounds, 1.8% hits; active = well fitted inhibition curve with a large enough effect; inconclusive = small, poorly fitted or top-dose-only effect, or effect the other way; inactive = flat fitted curve, though single readings scatter; tested in HEK293 cells; about a fifth of its hits are not listed in these tables; note: % is set by controls: 0 for no effect and ±100 for the full control effect; luciferase read-out
NS1 inh – qHTS Assay for Inhibitors of Influenza NS1 Protein Function; AID 2326, 2010; 270,000 compounds, 0.4% hits; Potency, µM (highest dose often 46.1 µM), for the others: top-dose activity, positive = more growth; S. cerevisiae slowed by influenza A NS1, growth recovery by OD600; active means well fitted rising curve with a large enough effect; inconclusive means small, poorly fitted or top-dose-only effect; inactive means no such curve, though single readings can be large or run the other way; note: nearly all actives have a fitted effect of over 50% in size
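OD600 was taken as the measure of yeast growth restored by compound in an NS1-expressing S. cerevisiae strain. Cells had been washed out of glucose medium and diluted 1:100 into galactose -URA medium, pH 6.0.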
RE007 growth inh – qHTS Assay for Inhibitors of the HIV-1 protein Vpr. S. pombe RE007 Vpr strain, BacTiter-Glo ATP luminescence, 24 h; control for the full effect not named in the record. Potency, µM (series often up to 92.2 µM), without a hit: at the highest dose activity change, negative = less growth. 360,000 compounds, 0.21% hits; active = well fitted falling curve with a large enough effect; inconclusive = small, poorly fitted or top-dose-only effect; inactive = no such curve, though single readings can be large or run the other way;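 note: % is set by controls: 0 for no effect and ±100 for the full control effect; nearly all actives have a fitted effect of over 50% in size; the assay follows cell death caused by Vpr and the record does not say whether a fall means rescue or toxicity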
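Fission yeast strain RE007, carrying one chromosomally integrated HIV-1 vpr copy, was seeded at OD 0.01 in PMG+AL medium with 23 nL pinned compound. After 24 h at 30 °C and 99% humidity, viability was read by BacTiter-Glo luminescence.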
Cruzain inh Det – qHTS Assay for Promiscuous and Specific Inhibitors of Cruzain (with detergent); Potency, µM, for the others: max response, negative = inhibition, hits mostly inhibitors; AID 1478, 2009; 200,000 compounds, 0.43% hits; purified cruzain, Z-FR-AMC fluorescence, 0.01% Triton;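 note: plate controls were neutral wells for no effect and buffer without enzyme for full effect; nearly all actives have a fitted effect of over 40% in size; top concentration of the series not given in the record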
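Detergent-containing run (0.01% Triton X-100) in acetate buffer pH 5.5 with 5 mM DTT: enzyme at 1.5 nM final, 15 min compound preincubation at room temperature, then 2 uM Z-FR-AMC substrate. Activity taken as 60 s fluorescence increase at 360/450 nm.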
SARS PLpro yeast – qHTS of Yeast-based Assay for SARS-CoV PLP; S. cerevisiae expressing SARS-CoV PLpro, growth rescue; control for the full effect not named in the record; Potency, µM (top dose mostly 32.9 µM), inactives show top-dose activity, positive = growth rescue; 330,000 compounds, 0.19% hits; active means well fitted rising curve with a large enough effect; inconclusive means small, poorly fitted or top-dose-only effect; inactive means no such curve, though single readings can be large or run the other way; note: 0% is about no effect; nearly all actives have a fitted effect of over 55% in size; growth read by luminescence after 48 h
Lassa entry inh – qHTS for Inhibitors of binding or entry into cells for Lassa Virus. Potency, µM (titrated, usually from 37.9 µM), for inactives: at the top dose activity change, negative = inhibition, hits mostly inhibitors. 300,000 compounds, 1.2% hits. Lassa virus pseudotype entry inhibition, cell reporter; control for the full effect not named in the record; active means well fitted inhibition curve with a large enough effect; inconclusive means small, poorly fitted or top-dose-only effect, or effect the other way; inactive means flat fitted curve, though single readings scatter; tested in HEK293 cells; note: % is set by controls: 0 for no effect and ±100 for the full control effect; nearly all actives have a fitted effect of over 50% in size; luciferase read-out
2A StopGo – High Throughput Screening for Foot and Mouth Disease Virus Antivirals. human cells with a luciferase reporter of 2A StopGo recoding; control for the full effect not named in the record. Potency, µM (highest dose often 57.9 µM), for inactives: top-dose signal change, negative = less light. 410,000 compounds, 1.2% hits. AID 1159524, 2015; active = well fitted falling curve with a large enough effect; inconclusive = small, poorly fitted or top-dose-only effect; inactive = no such curve, though single readings can be large or run the other way; tested in HEK293T cells; note: % is set by controls: 0 for no effect and ±100 for the full control effect; nearly all actives have a fitted effect of over 45% in size; luciferase light after 4 h
* marks the source's active call; other numbers are inactive results; u = inconclusive; x = no result given; [ ] = another dose, or the depositor's remark. Unless noted, calls come from the whole dose curve; as a rule, active = well fitted curve in the direction sought with a large enough effect; inconclusive = small, poorly fitted or top-dose-only effect, or another doubt; inactive = no such curve, though single readings can be large; an effect the other way counts as inactive or inconclusive. Potency is the fitted concentration of half-maximal effect.

SMILES | Cruzain noTriton | MARV entry inh | NS1 inh | RE007 growth inh | Cruzain inh Det | SARS PLpro yeast | Lassa entry inh | 2A StopGo
COc1ccc(NC(=O)C2CCCN2C(=O)NCc2ccccc2)cc1OC (stereo unspecified) | 18% | 13% | 7% | 19% | 0.1% | 4% | 7% | 5%
O=C(Nc1ccc(Br)cn1)c1cccc2ccccc12 | x | -6% | x | -12% | x | x | -20% | 11%
CC1CCCCN1C(=O)Cn1cc(C=O)c2ccccc21 (stereo unspecified) | 1% | 16% | -1% | -12% | -2.8% | -11% | 8% | -2%
Cc1ccc(OC(=O)C(F)(F)F)c2c1NCCC2 | 4% | 7% | 6% | 8% | -0.6% | 7% | 18% | 13%
O=C1NCCCN1Cc1ccc(F)cc1Cl | -4% | 0% | 5% | -4% | 6.3% | 2% | 19%[14.3 µM] | -10%
CC(=O)Nc1ccc(NC(=O)C(=O)c2cn(CC(=O)N3CCCCC3)c3ccccc23)cc1 | x | -13% | x | 0% | x | 4% | -2% | -12%
O=C(NC(=S)Nc1nc(-c2ccccc2)cs1)c1ccco1 | x | x | 4% | -14% | x | -2% | x | -14%
COC(=O)c1nc(-c2ccccc2)nc(-c2ccccc2)c1C(=O)OC | x | -15%[46.1 µM] | x | -15% | x | x | 15%[46.1 µM] | -25%
COC(=O)c1ccccc1-c1ccc(C=O)o1 | x | 6%[46.1 µM] | 5% | 3% | x | -2% | 4%[46.1 µM] | -4%
Cc1cc(C)n(-c2cc(N3CCOCC3)ncn2)n1 | 7% | x | -1% | -4% | -2.5% | -28% | x | 2%
CC1(C)CC(=O)C(Sc2nnc(-c3ccc(O)cc3)n2CC2CCCO2)C(=O)C1 (stereo unspecified) | -5% | -7% | -3% | -2% | -1.0% | -2% | 0% | x
CCOc1ccccc1N1C(=O)CC(Sc2n[nH]c(-c3ccccc3)n2)C1=O (stereo unspecified) | x | 2%[46.1 µM] | -52% | u | x | -5% | -2% | u
CN(Cc1ccccc1F)C(=O)c1ccc(NS(=O)(=O)c2ccc3[nH]c(=O)[nH]c3c2)cc1 | x | u | x | 4% | x | -4% | -7% | 9%
CC1CCCCN1CCCNC(=O)c1ccc(N2CCCC2=O)cc1 (stereo unspecified) | x | x | -3% | 2% | x | 1% | x | -22%
O=c1[nH]c2ccc(NCc3ccc(-c4ccccc4F)o3)cc2[nH]1 | u | -29%[46.1 µM] | x | x | -6.0% | x | -1%[46.1 µM] | -15%
CCCCc1ncc(CN2CCCC(C(=O)c3ccc(SC)cc3)C2)[nH]1 (stereo unspecified) | x | -11%[46.1 µM] | 2% | -6% | x | -2% | -5% | u
CCN(C(=O)COC(=O)c1cccnc1SC)C1CCS(=O)(=O)C1 (stereo unspecified) | -8% | 0% | -1% | -14% | 3.0% | 0% | -11% | -15%
O=C(/C=C(\O)c1ccccc1)C(=O)NNC(=O)c1ccccc1 | x | x | 2% | 0% | x | 0% | x | 17%
Cc1ccc(OCCOC(=O)C2CCN(S(=O)(=O)c3ccc(C)c(C)c3)CC2)cc1 | x | 10% | x | 5% | x | -4% | 4% | 2%
Cc1ccc(C)c(NC(=O)CSc2nc3nc(-c4cccs4)cc(C(F)(F)F)c3c(=O)[nH]2)c1 | x | 5% | 18% | 2% | x | 2% | x | u
COC(=O)[C@@H](NC(=O)N1CCN(c2cccc(C(F)(F)F)c2)CC1)C(C)C | 18% | u | -20% | -18% | -0.2% | -8% | -2% | u
CCN(c1ccc(OC)cc1)S(=O)(=O)c1cc(-c2cc(C)no2)ccc1OC | x | x | 2% | 1% | x | -4% | x | -21%
O=C(NCc1ccccc1Br)c1cnc2sc(N3CCCCCC3)nn2c1=O | 5% | x | x | x | -2.2% | x | -2%[46.1 µM] | u
Cc1ccccc1C(=O)N1CCN(S(=O)(=O)c2cccs2)CC1 | x | 4% | 11% | 1% | x | -1% | 22% | -17%
Cc1ccc(C)c(NC(=O)C(OC(=O)c2ccc(NC(=O)CC#N)cc2)c2ccccc2)c1 (stereo unspecified) | x | 8% | x | 2% | x | x | -3% | -10%

Exported as labelled records: entries from further up
SMILES: Cc1ccc(OCCOC(=O)C2CCN(S(=O)(=O)c3ccc(C)c(C)c3)CC2)cc1
  Cruzain noTriton: x
  MARV entry inh: 10%
  NS1 inh: x
  RE007 growth inh: 5%
  Cruzain inh Det: x
  SARS PLpro yeast: -4%
  Lassa entry inh: 4%
  2A StopGo: 2%
SMILES: CC1CCCCN1C(=O)Cn1cc(C=O)c2ccccc21 (stereo unspecified)
  Cruzain noTriton: 1%
  MARV entry inh: 16%
  NS1 inh: -1%
  RE007 growth inh: -12%
  Cruzain inh Det: -2.8%
  SARS PLpro yeast: -11%
  Lassa entry inh: 8%
  2A StopGo: -2%
SMILES: CCN(C(=O)COC(=O)c1cccnc1SC)C1CCS(=O)(=O)C1 (stereo unspecified)
  Cruzain noTriton: -8%
  MARV entry inh: 0%
  NS1 inh: -1%
  RE007 growth inh: -14%
  Cruzain inh Det: 3.0%
  SARS PLpro yeast: 0%
  Lassa entry inh: -11%
  2A StopGo: -15%
SMILES: CCCCc1ncc(CN2CCCC(C(=O)c3ccc(SC)cc3)C2)[nH]1 (stereo unspecified)
  Cruzain noTriton: x
  MARV entry inh: -11%[46.1 µM]
  NS1 inh: 2%
  RE007 growth inh: -6%
  Cruzain inh Det: x
  SARS PLpro yeast: -2%
  Lassa entry inh: -5%
  2A StopGo: u

Continued.
SMILES | Cruzain noTriton | MARV entry inh | NS1 inh | RE007 growth inh | Cruzain inh Det | SARS PLpro yeast | Lassa entry inh | 2A StopGo
CN(C(=O)c1ccc(Br)o1)C1CCCCC1 | x | x | -5% | 2% | x | 0% | x | 61%[activator]
O=C1CCC2S/C(=C/Nc3ccc(C(F)(F)F)cc3)C(=O)N12 (stereo unspecified) | x | u | x | 15% | x | 0% | u | 8.9µM*
Nc1ccc2nc(CCCCc3nc4ccccc4[nH]3)[nH]c2c1 | x | x | -7% | 1% | x | -3% | x | 10%
CCCCN1C(=O)NC(NC(C)=O)(C(F)(F)F)C1=O (stereo unspecified) | -12% | 29%[46.1 µM] | 3% | -9% | -0.3% | 2% | -2% | -6%
CCN(CC)CCCOc1nc(C)nc2c1oc1ccccc12 | 1% | -20% | -1% | 1% | 2.7% | 1% | 14% | -14%
COCCNC(=O)COC(=O)CSCc1nc2ccccc2s1 | 3% | 2% | 0% | 4% | -0.5% | 5% | 13% | 36%[activator]
CCCOc1ccc(C2C(=O)N(C3CCCCC3)CC(=O)N2C2CCCCC2)cc1OC (stereo unspecified) | 0% | x | x | x | 0.8% | x | u | u
CCOC(=O)c1c(-c2ccc(OC)c(OC)c2)csc1NC(=O)c1ccc(F)cc1 | 0% | u | x | x | -1.7% | x | -9%[46.1 µM] | 0%
O=C(c1cc(-c2ccncc2)nc2ccccc12)N1CCN(c2ccccn2)CC1 | 3% | u | -22% | 13% | 0.7% | 10% | -7% | -9%
CC(=O)c1ccc(N2CCN(C(=O)c3cc(S(=O)(=O)N4CCOCC4)ccc3C)CC2)cc1 | x | 1% | x | -12% | x | -1% | 4% | -10%
COC1C=COC2(C)Oc3c(C)c(O)c4c(O)c(c(CN5CCN(C)CC5)c(O)c4c3C2=O)NC(=O)C(C)=CC=CC(C)C(O)C(C)C(O)C(C)C(OC(C)=O)C1C (stereo unspecified) | x | u | x | -12% | x | x | -9%[46.1 µM] | -27%
Cc1occc(=O)c1OC(=O)Nc1ccc(Cl)c(Cl)c1 | 5% | u | -29% | -6% | -3.2% | -134% | u | 0%
CCC(C)[C@H](NC(=O)N1CC(=O)Nc2ccccc21)C(=O)N[C@@H](Cc1c[nH]c2ccccc12)C(=O)O (stereo partly specified) | x | x | 12% | -15% | x | 1% | x | u
COc1cccc(-c2ccc(C#N)c(SCC(=O)NCCc3ccccc3)n2)c1 | u | 8% | 29% | 1% | -1.5% | 15% | -9% | -14%
Cc1ccc(-c2nc(-c3ccncc3)no2)cc1C | x | u | -1% | -19% | x | 0% | u | -24%
CCOC(=O)N1CCC(n2c(SCC(=O)NCc3ccco3)nc3ccsc3c2=O)CC1 | -6% | u | -6% | 1% | 6.0% | -1% | u | u
O=C(COc1ccc2ccccc2c1)NNC(=O)c1ccccc1 | x | 15%[46.1 µM] | -4% | 1% | x | 1% | -3% | 34%[activator]
c1ccc(OCc2noc(CN3CCC(C4CCCCC4)C3)n2)cc1 (stereo unspecified) | x | x | -6% | u | x | -2% | x | -15%
CCOc1cc(S(=O)(=O)NCc2ccncc2)ccc1Cl | x | u | 1% | -2% | x | 0% | u | -10%
COc1ccc(C(=O)N/C(=C/c2cccnc2)C(=O)NCc2ccco2)cc1OC | x | 6% | 1% | -20% | x | 2% | 17% | -6%
COC(=O)C(/C=N/OCc1ccc([N+](=O)[O-])cc1)NC(=O)c1ccccc1 (stereo unspecified) | 5% | 6% | -1% | -5% | -7.1% | 2% | 16% | -12%
COc1ccc(C2C3=C(CC(C)(C)CC3=O)Nc3c2c(=O)[nH]c(=O)n3Cc2ccccc2)cc1 (stereo unspecified) | -7% | 1% | 10% | -24% | -1.1% | -1% | -1% | -16%
Cc1occc1C(=O)NNC(=S)Nc1ccccc1C(F)(F)F | -8% | u | 5% | 0% | 3.4% | 6% | 11% | 31%[activator]
N#C/C(=C\c1ccc2c(c1)OCO2)C(=O)NCc1ccco1 | x | 22% | x | -12% | x | 3% | 20% | 23%
O=C(NCc1ccccc1)C1CCN(S(=O)(=O)N2CCOCC2)CC1 | 0% | 24% | -4% | -21% | 0.4% | 1% | u | -2%
CC(C)CNS(=O)(=O)c1ccc(CCC(=O)N2CCN(c3ccc(F)cc3)CC2)cc1 | x | x | 1% | -3% | x | 0% | x | u
Cc1cccc(C)c1OC(=O)CSc1nnc(CNC(=O)c2ccccc2)o1 | u | 7%[46.1 µM] | x | x | -4.4% | x | -14%[46.1 µM] | 0%

Assay outcomes (PubChem)
